Source: PubChem BioAssay
VACV Venus inh: inhibitors of vaccinia virus (Venus reporter). Vaccinia virus Venus reporter expression, fluorescence. Potency, µM (titrated, usually from 36.5 µM), inactives show top-dose activity change, negative = inhibition, hits mostly inhibitors. actives 0.46% (n = 330,000). AID 720580; active means well fitted inhibition curve with a large enough effect; inconclusive means small, poorly fitted or top-dose-only effect; inactive means no such curve, though single readings can be large or run the other way; tested in A549 cells; further: nearly all actives have a fitted effect of over 30% in size; inactives centre near -10
Vaccinia mCherry: vaccinia inhibition (mCherry reporter); Vaccinia virus mCherry reporter infection, fluorescence; about a quarter of the inactives have no number; Potency, µM (titrated, usually from 36.5 µM), for the others: at the highest dose activity change, negative = inhibition, actives largely listed as inhibitors; actives 0.63% (n = 310,000); active = well fitted inhibition curve with a large enough effect; inconclusive = small, poorly fitted or top-dose-only effect; inactive = no such curve, though single readings can be large or run the other way; tested in A549 cells; further: nearly all actives have a fitted effect of over 35% in size; inactives centre near -10
* = called active by the depositor; i = inactive; u = inconclusive; x = no result given; & = joins results of further samples; [ ] = remark or other dose. On the % scale 0 is the no-effect control and ±100 the full control effect; potency means the concentration at half of the fitted maximal effect.

cpd	Structure	VACV Venus inh	Vaccinia mCherry
1	CC(C)(C)C1CCc2nc(NC(=O)COc3ccc(F)cc3)sc2C1 (centres undefined)	-13%	-17%
2	COc1cccc(OC)c1C(=O)OCC(=O)NCCNC(=O)COC(=O)c1c(OC)cccc1OC	-11%	-2%
3	CC(C)(C)c1ccc(C(=O)N2CCN(CCc3ccccn3)CC2)cc1	-6%	-24%
4	Cc1ccc(NS(=O)(=O)c2ccc3[nH]c4c(c3c2)CCCC4)c(C)c1	-8%	-13%
5	O=C(CCC(=O)N(CC(=O)NC1CCCCC1)Cc1ccccc1)Nc1nccs1	1%	14%
6	O=[N+]([O-])c1ccc(N=Nc2ccc(O)c3ccccc23)cc1	-25%	u
7	NC(=O)[C@H]1CC2(CC(c3cccc(NC(=O)[C@H]4CCC(=O)N4)c3)=NO2)CN1C(=O)c1ccccc1 (some centres undefined)	5%	i
8	Cc1cc2cc(CN(CCN(C)C)C(=S)NCc3ccco3)c(=O)[nH]c2cc1C	-27%	i
9	COc1ccc(NC(=O)c2ccc(-n3cnnn3)cc2)c([N+](=O)[O-])c1	-12%	-3%
10	C[C@H](NC(=O)c1nc[nH]c1C(=O)N[C@@H](C)C(=O)OCc1ccccc1)C(=O)OCc1ccccc1	-6%	i
11	COc1ccc(N2CC(NC(=O)c3cccs3)CC2=O)cc1OC (centres undefined)	-8%	-5%
12	CC(C)C[C@H](NC(=O)c1nc[nH]c1C(=O)NCCCCCN)C(=O)OCc1ccccc1	-5%	-12%

Next part, overlapping the part above by 5 compounds.
cpd	Structure	VACV Venus inh	Vaccinia mCherry
8	Cc1cc2cc(CN(CCN(C)C)C(=S)NCc3ccco3)c(=O)[nH]c2cc1C	-27%	i
9	COc1ccc(NC(=O)c2ccc(-n3cnnn3)cc2)c([N+](=O)[O-])c1	-12%	-3%
10	C[C@H](NC(=O)c1nc[nH]c1C(=O)N[C@@H](C)C(=O)OCc1ccccc1)C(=O)OCc1ccccc1	-6%	i
11	COc1ccc(N2CC(NC(=O)c3cccs3)CC2=O)cc1OC (centres undefined)	-8%	-5%
12	CC(C)C[C@H](NC(=O)c1nc[nH]c1C(=O)NCCCCCN)C(=O)OCc1ccccc1	-5%	-12%
13	COc1cccc(-n2c(N)cc(=O)nc2SCC(=O)Nc2cc(C)on2)c1	-5%	-14%
14	Cc1cc(NS(=O)(=O)c2ccc(NC(=O)COc3ccccc3C(C)C)cc2)no1	-6%	-8%
15	CCOc1cc(S(=O)(=O)N2CCN(S(=O)(=O)CC)CC2)c(OCC)cc1-n1cnnn1	-5%	-8%
16	COc1ccc(N2C(=O)C(Cc3ccccc3)NC2=S)cc1 (centres undefined)	-8%	-8%
17	CC(C)NC(=O)COC(=O)c1ccccc1OCC(=O)Nc1ccc(Br)cc1	-7%	-12%
18	COc1ccc(C(O)c2nc(-c3cc(F)cc(Cl)c3)cs2)cc1 (centres undefined)	-11%	i
19	COc1cc(C)c2c(c1OC)C(=O)CC2	-10%	-15%
20	COc1ccccc1N1CCN(C(=O)c2cc3c(=O)oc4ccccc4c3s2)CC1	-5%	-10%
21	O=C(Cn1nnc(-c2ccccc2-n2cnnn2)n1)N1CCCCC1	-11%	x
22	CCCNC(=O)Cn1c(=O)/c(=C/c2ccc(-c3ccc([N+](=O)[O-])cc3)o2)s/c1=C\C(=O)C(C)(C)C	59%[activator]	u
23	CCN(CC)S(=O)(=O)c1ccc2c(c1)c(=O)c(C(=O)NCCc1ccccc1)cn2C	-11%&-4%	-1%&-14%
24	Cc1cc(N)n(-c2ccc(S(=O)(=O)N3CCCC3)cc2[N+](=O)[O-])n1	-8%	-19%

Next section:
cpd	Structure	VACV Venus inh	Vaccinia mCherry
25	COc1cccc(-n2nnc3c(=O)n(Cc4ccccc4F)cnc32)c1	-11%	-19%
26	COC(=O)C1CCN(C(=O)COC(=O)c2cccc(NS(=O)(=O)c3ccccc3)c2)CC1	-9%	-15%
27	CN(Cc1ccccc1)C(=O)c1ccc2c(c1)S(=O)(=O)N=C1CCCCCN12	0%	i
28	O=C(O)CCC(=O)OCc1c(-c2ccccc2)ncc2ccccc12	-5%	i
29	COc1ccc(-c2ccc3c(c2)c(-c2cccs2)c(-c2cc(OC)cc(OC)c2)n3C)cc1	-1%	i
30	COc1ccc(OC)c2sc(N3CCN(C(=O)C4CC4)CC3)nc12	-12%	-2%
31	Cc1cc(Nc2nc(Cl)c(Cl)cc2Cl)n(-c2ccccc2)n1	u	-15%
32	O=C(Cn1c(=O)[nH]c2ccccc2c1=O)N1CCN(c2cccc(Cl)c2)CC1	8%	-9%
33	O=C(CCN1C(=O)C2C3C=CC(C3)C2C1=O)Nc1ccccc1F (centres undefined)	-23%	x
34	Cc1nn(-c2ccc(Cl)c(Cl)c2)c(=O)c2ccccc12	-1%	x
35	O=C(CSc1nnc(Cn2nnc3ccccc32)o1)N(Cc1ccc(F)cc1)c1ccccc1	u	u
36	c1ccc(-c2nnc(-c3ccccc3)nn2)cc1	8%	u

(continued)
cpd	Structure	VACV Venus inh	Vaccinia mCherry
37	CCN(CC)C(=O)C1=C(C)N(Cc2ccc(F)cc2)C(=O)C(CC(=O)NCc2cccc3ccccc23)C1 (centres undefined)	-22%	15%
38	CCOc1ccccc1NC(=O)Nc1cc(S(=O)(=O)N(C)C)ccc1C	2%[7.34 µM]	-6%[7.34 µM]
39	C[C@@H]1CC[C@]2(O[C@@H](CCO)C[C@H](O)[C@H]2O)O1	-6%	i
40	O=[N+]([O-])c1cccc(S(=O)(=O)Nc2cccc(-c3ccc(N4CCOCC4)nn3)c2)c1	-17%	i
41	CCN(CC)S(=O)(=O)c1ccc(NS(=O)(=O)c2ccc(F)cc2)cc1	-15%	-16%
42	O=c1cc(-c2ccccc2Cl)oc2cc(O)cc(O)c12	-6%	-4%
43	O=C(COc1ccc(Br)cc1Br)NC(=O)NC1CCCC1	-3%	-16%
44	CCc1cccc(NC(=O)CN2c3ccccc3S(=O)(=O)c3ccccc32)c1	3%	-11%
45	Cc1ccccc1CNc1nnnn1C	-16%	-12%
46	CCOc1ccc(CN2CCc3nc(N4CCN(c5ccccc5OC)CC4)ncc3C2)cc1OC	u	u
47	Cc1ccc(NCC(=O)N/N=C/c2cccc(Oc3ccccc3)c2)cc1	u	u
48	CCn1cc(C(=O)N2CC(C)CC(C)C2)c(=O)c2cc(S(=O)(=O)N3CCCC3)ccc21 (centres undefined)	-5%	-22%

Additional results:
Each structure is followed by: VACV Venus inh | Vaccinia mCherry
49) Cn1c(C(=O)N2CCCC(Nc3ccc(F)cc3)C2)cc2ccccc21 (centres undefined)
→ -14% | u
50) Clc1cc(Br)ccc1OCCCNCc1ccccc1
→ u | -8%
51) Cc1ccc(NC(=O)C(=O)NCC(c2cccnc2)N2CCOCC2)cc1Cl (centres undefined)
→ -14% | -9%
52) CCOC(=O)C1(NC(=O)CN2C(=O)c3ccccc3C2=O)CCCC1
→ -5% | -13%
53) COCCNc1nc(-n2nc(C)cc2C)nc2sc3c(c12)CCCC3
→ u | u
54) COc1ccccc1C1CN(CCNC(=O)C2=CCCC2)Cc2ccccc2O1 (centres undefined)
→ -13% | -21%
55) O=C(OC1Cn2c(=O)ccc(=O)n2C1)c1ccc([N+](=O)[O-])cc1
→ -6% | -16%
56) COc1ccc(C(=O)N2CCC(C(=O)NC3CC3)CC2)cc1
→ -2% | 29%
57) COc1cc(C(=O)Nc2ccc(N3CCOCC3)cc2)ccc1OCc1c(C)noc1C
→ -25% | -19%
58) O=c1[nH]c(=O)n(Cc2ccccc2)c(O)c1C=NCCN1CCOCC1
→ -12% | i
59) Clc1cc(Br)ccc1OCCOCCOc1cccc2cccnc12
→ -10% | x
60) COC(=O)C1(C(=O)OC)C[C@H](/C=C/c2ccccc2)N(Cc2ccccc2OC)[C@@H]1c1cccc(Br)c1
→ 10% | u
61) COc1ccccc1NC(=O)C1=C(C)Nc2nc(-c3ccco3)nn2C1c1ccccc1 (centres undefined)
→ -12% | -2%
62) O=C(Cn1nnc(-c2cccs2)n1)N1CCOCC1
→ -13% | -8%
63) COc1ccc(CC(=O)N(c2ccccc2)c2nc(C)cs2)cc1
→ -20% | -13%

Remaining list, next part.
Each structure is followed by: VACV Venus inh | Vaccinia mCherry
64) O=C(CN1CCN(C(=O)c2ccc(-c3nc4ccccc4s3)o2)CC1)Nc1cccc(F)c1
→ -15% | i
65) COc1ccc(NC(=O)c2c(N)c(C(=O)c3ccc(OC)cc3)n3ccccc23)cc1
→ -9% | -13%
66) CCOC(=O)N1CCC(N2CC34C=CC(O3)C(C(=O)Nc3ccc(F)cc3)C4C2=O)CC1 (centres undefined)
→ -9% | -7%
67) CCN(CC)c1ccc(/C=N/N2CCN(Cc3ccccc3)CC2)c(O)c1
→ 1% | i
68) CC(C)(C)SCCNS(=O)(=O)c1ccc(Cl)cc1
→ -13% | -13%
69) COc1ccccc1C1NC(=O)CS1 (centres undefined)
→ -20% | x
70) CCN(CC)c1c([N+](=O)[O-])ncn1C
→ -15% | x
71) COc1ccc(-c2nc3cc([N+](=O)[O-])ccc3o2)cc1
→ -2% | -15%
72) CC(=O)N1CCN(C(=O)c2cc(S(=O)(=O)N3CCN(c4ccccc4)CC3)ccc2Cl)CC1
→ -17% | -8%
73) O=C(Nc1nnc(C2CC2)s1)C1CCCO1 (centres undefined)
→ 11% | -5%
74) COc1cc2c(cc1OC)C(C)N(C(=O)CCN1C(=O)C3C4C=CC(C4)C3C1=O)CC2 (centres undefined)
→ -9% | x
75) O=C(CCNC(=O)Cn1ccc2ccccc2c1=O)NCCc1ccccc1Cl
→ -13% | -3%
76) COc1ccccc1N1CCN(S(=O)(=O)c2ccccc2)CC1
→ -10% | i
77) Cc1ccc2cc(CN(CCN(C)C)C(=S)Nc3ccccc3)c(=O)[nH]c2c1C
→ 7% | i
78) CCOc1ccc(-n2c(Cc3ccccc3)nnc2SCc2nc(-c3cccs3)no2)cc1
→ 2% | -2%

Along the list, as entered above.
Nos. 70–77 in Vaccinia mCherry: x, -15%, -8%, -5%, x, -3%, i, i
Nos. 70–77 in VACV Venus inh: -15%, -2%, -17%, 11%, -9%, -13%, -10%, 7%

Next compounds:
Each structure is followed by: VACV Venus inh | Vaccinia mCherry
79) CN(C)S(=O)(=O)c1ccc(C(=O)OCCn2cnc3c2c(=O)n(C)c(=O)n3C)cc1
→ -18% | i
80) O=C(COc1cccc(C(F)(F)F)c1)NNC(=O)Cn1c(=O)cnc2ccccc21
→ -8% | i
81) Cc1ccccc1NS(=O)(=O)c1ccc(C(=O)N2CCCCCCC2)cc1
→ -20% | 0%
82) CN(C)c1ccc(N=O)cc1
→ 5% | 25%
83) CNc1cnc(-c2ccc(O)c(OC)c2)cn1
→ -6% | i
84) CC1=C(c2ccc(Cl)cc2)S(=O)(=O)N=C1N1CCN(c2cccc(C(F)(F)F)c2)CC1
→ -28% | -30%
85) COc1ccc(-c2cccc(C3CC=CC4C3C(=O)N(Cc3ccccc3)C4c3ccc(OC)c(Cl)c3)c2)cc1 (centres undefined)
→ -9% | -28%
86) O=[N+]([O-])c1cnccc1Nc1cccc(F)c1
→ -16% | -4%
87) COc1cc(C(C)=O)ccc1Oc1ncccn1
→ -17% | -14%
88) CC(C)Cc1cc(C(=O)Nc2ccc3c(c2)OCO3)no1
→ -3% | 1%
89) Cc1ncc([N+](=O)[O-])n1CCOC(=O)c1ccc(Cl)cc1Cl
→ -5% | -3%
90) Cc1ccc(NC(=O)c2nc(S(=O)(=O)Cc3cccc(C)c3)ncc2Cl)cc1
→ -8%[7.34 µM] | -11%[7.34 µM]
91) O=C(CSc1nc2ccccc2c(=O)n1CCCN1CCOCC1)c1c[nH]c2ccccc12
→ -16% | -17%
92) Cc1cc(Br)ccc1NC(=O)c1cc2c(=O)n(C)c3cc(Cl)ccc3c2s1
→ 8% | -1%
93) Cc1ncc(CO)c2cc(S(=O)(=O)c3ccc(F)cc3)c(=O)oc12
→ 5% | 10%

Record cards (already shown):
O=[N+]([O-])c1cnccc1Nc1cccc(F)c1 across the screens: VACV Venus inh: -16%; Vaccinia mCherry: -4%
Cc1ncc(CO)c2cc(S(=O)(=O)c3ccc(F)cc3)c(=O)oc12 across the screens: VACV Venus inh: 5%; Vaccinia mCherry: 10%

Additional structures.
Each structure is followed by: VACV Venus inh | Vaccinia mCherry
94) COc1ccccc1/C=C/C=N/n1c(C2CCCCC2)n[nH]c1=S
→ -3% | i
95) COC(=O)c1ccc2c(c1)S(=O)(=O)NC(=NCCCN1CCOCC1)S2
→ -24% | -8%
96) O=C(NCC(c1cccs1)N1CCOCC1)c1ccc([N+](=O)[O-])cc1 (centres undefined)
→ -6% | i
97) COC(=O)c1ccccc1NS(=O)(=O)c1ccc2[nH]c(=O)[nH]c2c1
→ 1% | -15%
98) Cn1c(=O)c2cc(C(=O)NCCCN3CCN(c4ccccc4F)CC3)sc2c2ccccc21
→ 0%[7.34 µM] | 4%[7.34 µM]
99) CCOc1ccccc1NC(=O)CSc1ccc2nnc(CCNS(=O)(=O)c3ccccc3)n2n1
→ -3% | -10%
100) O=C(C1CCCN(S(=O)(=O)c2cc(Cl)ccc2Cl)C1)N1CCOCC1 (centres undefined)
→ -12% | -20%
101) COc1cc2c(cc1OC)C(c1cccs1)N(C(=S)NC(C)C)CC2 (centres undefined)
→ -16% | -9%
102) O=C1CN(C(=O)NCC(=O)N[C@H](Cc2ccccc2)C(=O)O)c2ccccc2N1
→ -3% | i
103) Cc1ccc(CNC(=O)CCNS(=O)(=O)c2ccc(Br)s2)cc1
→ -24% | i
104) Cc1ccc(C(=O)N/N=C/c2cccnc2)cc1Cl
→ -11% | -2%
105) Cc1cc(C)c(OCC(=O)Nc2ccccc2N2CCCCC2)c(C)c1
→ -6% | -11%
106) O=C(NC1CCS(=O)(=O)C1)Oc1ccccc1 (centres undefined)
→ 4% | -12%
